# Screens as filed in PubChem.
# Rango release inh: qHTS Assay for Inhibitors of RanGTP induced Rango (Ran-regulated importin-beta cargo) - Importin beta complex dissociation; Snurportin-1 (Homo sapiens) + GTP-binding nuclear protein Ran (Homo sapiens) + Importin …; Biochemical FRET Rango-importin beta, RanGTP-induced dissociation; Potency, µM (titrated, usually from 46.1 µM), inactives show at the highest dose activity change, negative = inhibition; actives 0.071% (n = 340,000); AID 540253, 2011; active means falling FRET ratio curve, often poorly fitted, with flat reads before Ran was added; inconclusive means other falling curves, or compound fluorescence or quenching; inactive means flat or rising ratio curve;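 further: potency means the concentration at half of the fitted maximal effect; % of control where 0% means no effect; nearly all actives have a fitted effect of over 45% in size; -100% = wells without RanGTP and RCC1; the record marks most hits as doubtful in a second field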
#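 Recombinant Rango FRET biosensor (EYFP–snurportin 1 IBB–cerulean CFP10) at 0.1 uM premixed with 0.25 uM importin beta in PBS, 1 mM DTT, 0.02% Tween-20, 0.1% BSA. Compound added 5 min; RanGTP-RCC1 (0.6 uM Ran, 2 mM GTP, 0.2 uM RCC1) then triggers release, read at 45 min.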
# Rango complex inh: qHTS Assay for Inhibitors of Rango (Ran-regulated importin-beta cargo) - Importin beta complex formation | Importin subunit beta-1 (Homo sapiens), Q14974 | Rango CFP/YFP FRET sensor + importin beta, 45 min | Potency, µM (series often up to 92.2 µM), without a hit: at the highest dose inhibition of complex formation | actives 0.031% (n = 340,000) | AID 540263, 2011; active = rising FRET ratio curve, often small or poorly fitted; inconclusive = mostly compound fluorescence or quenching in the first reads; inactive = flat curves in all reads;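 further: potency means the concentration at half of the fitted maximal effect; 0% = DMSO wells and 100% = buffer wells lacking importin beta; nearly all actives have a fitted effect of over 15% in size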
# Target sequence (Q14974 whole entry, looked up): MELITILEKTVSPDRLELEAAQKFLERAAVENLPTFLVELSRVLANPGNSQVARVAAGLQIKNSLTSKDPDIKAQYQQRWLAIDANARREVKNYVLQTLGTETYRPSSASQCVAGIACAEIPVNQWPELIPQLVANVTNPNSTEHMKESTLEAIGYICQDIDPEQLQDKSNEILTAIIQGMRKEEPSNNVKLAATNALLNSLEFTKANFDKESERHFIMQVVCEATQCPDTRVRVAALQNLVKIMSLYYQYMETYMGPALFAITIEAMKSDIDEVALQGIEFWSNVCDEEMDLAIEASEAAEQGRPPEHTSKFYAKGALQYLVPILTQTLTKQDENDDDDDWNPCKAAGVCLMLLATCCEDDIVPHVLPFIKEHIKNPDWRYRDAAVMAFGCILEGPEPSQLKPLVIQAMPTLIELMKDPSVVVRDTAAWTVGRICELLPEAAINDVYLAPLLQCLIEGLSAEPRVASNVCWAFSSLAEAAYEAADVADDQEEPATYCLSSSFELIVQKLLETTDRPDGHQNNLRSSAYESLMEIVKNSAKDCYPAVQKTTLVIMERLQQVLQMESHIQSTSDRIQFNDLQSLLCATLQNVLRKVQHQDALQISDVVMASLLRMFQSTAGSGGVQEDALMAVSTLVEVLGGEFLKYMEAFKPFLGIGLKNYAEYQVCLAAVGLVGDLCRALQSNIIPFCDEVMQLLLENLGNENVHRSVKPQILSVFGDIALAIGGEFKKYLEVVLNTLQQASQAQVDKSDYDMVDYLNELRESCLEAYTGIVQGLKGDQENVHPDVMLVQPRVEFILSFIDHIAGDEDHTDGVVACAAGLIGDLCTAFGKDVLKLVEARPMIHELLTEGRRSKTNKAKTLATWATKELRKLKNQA
#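 FRET biosensor Rango (snurportin 1 IBB between N-terminal EYFP and C-terminal Cerulean), 50 nM in PBS/1 mM DTT/0.02% Tween-20/0.1% BSA, preincubated 5 min RT with compound; 0.125 microM importin beta added, 45 min RT, CFP/YFP FRET ratio read.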
# miR-21 reporter: qHTS Assay for Modulators of miRNAs and/orActivators of miR-21. HeLa miR-21 FLuc reporter, luciferase, 48 h. Potency, µM (highest dose often 38.3 µM), without a hit: at the top dose reporter change, positive = more light. 340,000 tested, under 10 active. AID 2288, 2010; active = well fitted rising curve with a large enough effect; inconclusive = small, poorly fitted or top-dose-only effect; inactive = no such curve, though single readings can be large or run the other way;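 further: % of control where 0% means no effect; miR-21 action dims this reporter so a rising signal means less miR-21 action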
#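 Using DMEM plus 10% FBS, HeLa miR-21-FLuc cells are incubated with test compounds (final up to about 40uM) for 48 hours; firefly luciferase signal is then imaged following reagent-mediated lysis.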
# GLA inh pH 4.5: qHTS Assay for Inhibitors of Human alpha-Galactosidase at pH 4.5. activity change, negative = inhibition, % at 105 µM. AID 1467, 2008. 230,000 tested, under 10 active. Alpha-galactosidase A (Homo sapiens), P06280. purified enzyme, 4-MU-alpha-Gal fluorescence, pH 4.5; inconclusive = small, poorly fitted or top-dose-only inhibition, or a rising curve; inactive = flat fitted curve, though single readings scatter; no compound was filed as active;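 further: 0% = full activity with enzyme and -100% = basal without enzyme; dose as in the result columns while the protocol names 77 µM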
# An asterisk follows results filed as active; ? = inconclusive; nt = no result given; & = joins results of further samples.
SMILES,Rango release inh,Rango complex inh,miR-21 reporter,GLA inh pH 4.5
Clc1ccccc1OCCCCN1CCCCC1,-9%,0.2%,-6%,nt
O=C(O)c1cccc(NS(=O)(=O)c2ccc(Cl)c(C(=O)Nc3cccc([N+](=O)[O-])c3)c2)c1,15%,-1.5%,nt,nt
COc1ccc(C2=Nn3c(nnc3-c3ccccc3C(F)(F)F)SC2)cc1OC1CCOC1 (stereo not given),1%,-2.5%,nt,nt
Cc1ccc(NS(=O)(=O)c2ccc(NC(=O)c3ccccc3C(=O)O)cc2)cc1C,-3%,0.5%,nt,nt
COc1cccc(/C=C2\SC(=S)N(CCCC(=O)N(CCO)c3ccccc3)C2=O)c1,-7%,4.2%,?,nt
CCCOc1ccc(/C=N/NC(=O)C(=O)Nc2ccccn2)cc1,5%,-0.6%,-5%,1
Cc1ccc(CCNC(=O)CN2C(=O)COc3ccc(S(=O)(=O)N4CCOCC4)cc32)cc1,9%,5.1%,0%,nt
CC(C)Cn1c(N)c(C(=O)CSc2nnc(-c3ccco3)n2C)c(=O)n(C)c1=O,-15%,0.0%,nt,nt
Cc1ccc(C(C)NC(=O)C2CCCO2)cc1C (stereo not given),2%,4.9%,0%,-5
O=C(N/N=C1/CCCc2ccccc21)C(c1ccccc1)c1ccccc1,8%,3.1%,1%,-11

# In a second layout: results already given
Compound	Rango release inh	Rango complex inh	miR-21 reporter	GLA inh pH 4.5
O=C(N/N=C1/CCCc2ccccc21)C(c1ccccc1)c1ccccc1	8%	3.1%	1%	-11
Clc1ccccc1OCCCCN1CCCCC1	-9%	0.2%	-6%	nt
O=C(O)c1cccc(NS(=O)(=O)c2ccc(Cl)c(C(=O)Nc3cccc([N+](=O)[O-])c3)c2)c1	15%	-1.5%	nt	nt
COc1ccc(C2=Nn3c(nnc3-c3ccccc3C(F)(F)F)SC2)cc1OC1CCOC1 (stereo not given)	1%	-2.5%	nt	nt
Cc1ccc(NS(=O)(=O)c2ccc(NC(=O)c3ccccc3C(=O)O)cc2)cc1C	-3%	0.5%	nt	nt
CCCOc1ccc(/C=N/NC(=O)C(=O)Nc2ccccn2)cc1	5%	-0.6%	-5%	1

# New compounds follow:
SMILES,Rango release inh,Rango complex inh,miR-21 reporter,GLA inh pH 4.5
CCCc1cc(C(=O)N/N=C/c2ccc(C)o2)c2ccccc2n1,2%,0.3%,16%,-6
CCS(=O)(=O)NCCc1csc(C)n1,5%,-0.6%,-1%,-1
Cc1cc(NC(=O)COC(=O)c2c(C)nn(-c3ccccc3)c2C)no1,-11%,-0.2%,-13%,-3
COC(=O)c1ccc(C(=O)OC)c(NC(=O)C2CC2)c1,5%,5.8%,-5%,1
COc1ccc(C(C)(C)C)cc1NC(=O)CCCN1C(=O)CN(C)C1=O,2%,3.6%,nt,nt
CC(c1ccccc1)n1cnc2ccccc2c1=O (stereo not given),5%,1.9%,-2%,nt
COc1ccc(C(=O)Nc2ccc(S(=O)(=O)Nc3cc(C)nc(C)n3)cc2)cc1,7%,-3.7%,-2%&-7%,0
CC(CNS(=O)(=O)c1ccc2c(c1)CC(=O)N2C)c1ccccc1 (stereo not given),7%,-1.9%,-4%&-7%,nt
O=c1cc2[nH]c3ccccc3c(=O)n2nc1-c1ccccc1,?,?,-26%,2
Cc1ccc(C(=O)NC2CCN(S(=O)(=O)c3ccccc3F)CC2)cc1,2%,3.2%,-5%,nt
N=c1c(S(=O)(=O)c2ccc(Cl)cc2)cc2c(=O)n3ccccc3nc2n1CCN1CCOCC1,?,?,-6%,?
COc1ccccc1OCCn1cc(/C=N/NC(N)=S)c2ccccc21,1%,0.7%,9%,-2
CCC(C)NC(=O)Nc1ccccc1C (stereo not given),6%,-0.2%,-2%,0
O=C(NCCCN1CCOCC1)c1cc(Cl)ccc1[N+](=O)[O-],-4%,0.7%,-3%,4
COCCCNC(=O)C(CC(N)=O)NC(=O)OCc1ccccc1 (stereo not given),-19%,-1.2%,-1%,10
CCOC(=O)C1=C(C)NC(C)=C(C(=O)OCC)C1C(=O)OCC(=O)NCc1ccco1,-1%,0.3%,nt,nt
COc1ccc(Cl)cc1S(=O)(=O)N1CCN(CC(=O)C(C)(C)C)CC1,-8%,0.0%,0%,-2
COc1cc(NC(=O)COC(C)=O)c(C)cc1[N+](=O)[O-],-4%,0.1%,-1%,-7
CCC1Sc2ccc(S(=O)(=O)Nc3cc(OC)cc(OC)c3)cc2NC1=O (stereo not given),?,4.2%,5%,nt
CCC(=O)Nc1ccc(NC(=O)CSc2nnnn2Cc2ccccc2)cc1C,20%,1.9%,-7%,nt
COc1cccc(-c2nnc3n2N=C(c2cccc(Br)c2)CS3)c1,0%,-4.5%,-1%,0
COc1ccc(C(=O)NCC(=O)NC2=NCCS2)cc1,-5%,-3.1%,-2%,-4
CCCN1CCN(CCCNC(=O)Cn2nc(-c3ccccc3)ccc2=O)CC1,-3%,-1.5%,-3%,1
Cc1ccc(Cn2nnc3c(=O)n(CC(=O)NCC4CCCO4)cnc32)cc1 (stereo not given),4%,-2.3%,-1%,-8
COc1ccc(OCCSc2nc3ccccc3c(=O)[nH]2)cc1,-3%,1.0%,-24%,-4
O=C1C=CC(=O)N1c1ccccn1,13%,-1.9%,nt,nt
CCOc1ccccc1Nc1cc2n(c(=O)n1)CCc1cc(OC)c(OC)cc1-2,-2%,-2.0%,-28%,nt
CSc1nc(N)c2c3c(sc2n1)COC(C(C)C)C3 (stereo not given),-8%,-0.3%,-8%,-12
CCOC(=O)c1ccc2ncc(C(=O)OCC)c(NCCCN3CCOCC3)c2c1,0%,-0.2%,-17%,16
CCN(CC)CCNC(=O)c1cn(-c2ccccc2)nc1-c1cccs1,0%,1.0%,-12%,-1
CCCN(C(=O)COC(=O)CNS(=O)(=O)c1ccc(NC(C)=O)cc1)C1CCS(=O)(=O)C1 (stereo not given),-8%,0.2%,nt,nt
CCOC(=O)C1(Cc2ccc(OC)cc2)CCN(C(=O)c2cncs2)CC1,-12%,-2.1%,-14%,-7
CC(C)c1c(O)nc(SCc2ccccc2)[nH]c1=O,-10%,-0.7%,-8%,1
COc1ccc(-c2cc(C(F)(F)F)nc(-n3cc(Cl)cn3)n2)cc1,-11%,0.2%,-9%,-8
CCOC(=O)c1ccccc1NC(=O)C(C)Oc1ccccc1 (stereo not given),11%,2.8%,3%,-10
COc1ccc(NC(=O)COC(=O)c2ccc(OC)c(S(=O)(=O)N3CCCC3)c2)cc1OC,-10%,-3.0%,nt,nt
CCc1ccccc1NS(=O)(=O)c1cccc2nsnc12,2%,3.2%,-3%,nt
Cc1ccc(S(=O)(=O)N(C)CC(=O)N2CCCCCC2)cc1,2%,-1.4%,2%,nt
CCOP(=O)(OCC)/C(=N/OC(=O)c1ccc(OC)cc1)C(N)=O,4%,2.4%,-4%,8
C[N+]1(CCC(=O)c2ccccc2)CCCCC1,21%,0.0%,-2%,-18
O=C(O)COc1ccccc1/C=N/NC(=O)CNC(=O)c1ccco1,-3%,7.9%,0%,nt
O=C(NCC1CCCO1)C(c1ccncc1)N(Cc1cccs1)C(=O)Cn1nnc(-c2ccc(F)cc2)n1 (stereo not given),-1%,-0.2%,-1%,1
COc1cc(C(C(=O)Nc2c(C)cccc2C)N(C)C(=O)c2ccc(-n3cnnn3)cc2)ccc1O (stereo not given),-2%,-1.9%,0%,-3
Cc1ccc(C(=O)N2CCN(c3ccccc3)CC2)cc1NC(=O)c1ccco1,-5%,1.0%,1%,nt
COc1ccc(CCNC(=O)COc2ccc3c(C)cc(=O)oc3c2)cc1,13%,0.0%,nt,nt
COc1ccc2c(CC(=O)Nc3nc(C)cs3)coc2c1,8%,5.7%,-31%,7
Cc1ccc(C(=O)NC2CCCC2)cc1S(=O)(=O)N1CCCCC1,0%,-0.2%,-10%,nt
CCOC1C(=O)NC(=O)N1Cc1ccccc1 (stereo not given),1%,-2.1%,-2%,nt
O=C(O)CCN=C1CCc2ccccc2N1,nt,nt,0%,0
Fc1ccc(CCN2CCN=C2Nc2ccccc2)cc1,-3%,-0.6%,nt,nt

# More compounds follow:
SMILES,Rango release inh,Rango complex inh,miR-21 reporter,GLA inh pH 4.5
COc1ccc(S(=O)(=O)N2Cc3ccccc3CC2C(=O)Nc2ccc3c(c2)OCO3)cc1 (stereo not given),-7%,0.4%,-30%,-3
CN1CCN(C(=O)c2cn(-c3ccccc3)nc2-c2cccs2)CC1,-8%,-1.2%,-2%,-1
CC(C)C[C@@H](CN1C(=O)C(=O)NC[C@@H]1CC(C)C)NC(=O)Cc1ccccc1,13%,0.5%,nt,nt
CC1CCC(NC(=O)CC(C)(C)Cc2nc3ccccc3c(=O)[nH]2)CC1 (stereo not given),3%,-0.8%,21%,-24
CCOc1ccc(CNCCN2CCCC2)cc1,15%,-3.1%,2%,nt
Cn1c(=O)c2c(ncn2CC(=O)N/N=C/C=C/c2ccccc2[N+](=O)[O-])n(C)c1=O,2%,0.5%,10%,2
CC1=C(C(=O)Nc2ccc(Cl)cc2)C(c2cccs2)n2nnnc2N1 (stereo not given),1%,-0.5%,-3%,3
O=C(CSc1nnc(-c2cccs2)o1)N1CCc2ccccc21,0%,0.5%,-3%,-4
COc1ccc(Br)cc1/C(C)=N/NC1=NCCN1,24%,0.2%,25%,6
O=C1CSC(c2cccnc2)N1c1cccc(Cl)c1 (stereo not given),2%,0.6%,1%,-7
O=[N+]([O-])c1ccccc1NCCOc1ccccc1,4%,-2.0%,-74%,-1
Cc1ccc(-n2nc3c(c2NC(=O)/C=C\c2ccc4c(c2)OCO4)CSC3)c(C)c1,-4%,2.4%,-13%,-1
O=C(NC(=S)Nc1ccccc1Cl)c1cnn2c(C(F)(F)F)cc(C(F)(F)F)nc12,-16%,0.3%,-1%,-3
O=C(CSc1ncccn1)NCC1CCCO1 (stereo not given),-9%,1.5%,nt,nt
COC(=O)CC1C(=O)NCCN1C(=O)Nc1ccc(Cl)c(Cl)c1 (stereo not given),11%,0.3%,1%,-2
O=C(COC(=O)c1ccc(F)cc1Cl)NC(=O)NC1CCCC1,0%,-3.0%,nt,nt
Cc1cccc(CSc2nc3c(c(=O)[nH]2)CCCC3)c1,11%,-2.3%,-8%,5
Cc1cccc(OCC(=O)NCc2nnc3ccc(C(F)(F)F)cn23)c1C,1%,?,nt,nt
CCCCOP(=O)(OCCCC)C(Nc1ccccc1)c1ccc2c(c1)OCO2 (stereo not given),-6%,1.8%,27%,-6
Cc1ccc(S(=O)(=O)N2CCC(C)CC2)cc1,13%,-0.6%,1%,nt
CN(NC1OC(=O)c2ccccc21)c1ccccc1[N+](=O)[O-] (stereo not given),12%,-0.3%,-10%,-1
Cc1ccc(NC(=O)CSc2nnc(CN3CCOCC3)n2C)cc1C,9%,-1.5%,1%,0
COc1ccc(CNC(=O)C2CCN(C(=O)N(C)C)CC2)c(OC)c1,8%,-0.7%,-2%,0
CC1CCCCN1CCNC(=O)c1cnn2ccccc12 (stereo not given),8%,-1.5%,-1%,-1
CCN(CC)S(=O)(=O)c1ccc(OC)c(NC(=O)C2CC(=O)N(c3ccc(C)cc3)C2)c1 (stereo not given),-2%,-0.5%,0%,4
CCOc1ncccc1C(=O)OCC(=O)c1cccc(Br)c1,9%,0.0%,-3%,-5
COc1ccc(S(=O)(=O)Nc2ccccc2Cl)cc1NC(C)=O,9%,-7.9%,2%,-5
CC(=O)Nc1ccc(S(=O)(=O)Nc2cccc(C(=O)NC(C)(C)C)c2)cc1,12%,-3.1%,2%,-17
COc1ccc(N(C(C)C(=O)Nc2ccc(S(=O)(=O)N3CCOCC3)cc2)S(C)(=O)=O)cc1 (stereo not given),12%,-2.0%,12%,-13

# Only part of the results is shown; count on the stated rates, not on these rows.
